rRNA inh HTS: inhibitors of bacterial rRNA selective over humanized ribosomes | E. coli WT GFP vs humanized-ribosome RFP mutants, fluorescence, 24 h; hits give low values; DMSO median 0, no signal -100 | GFP signal change (wild-type ribosome), % (concentration not given with the values) | 350,000 tested, 1.6% active;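 active = significant combined selectivity score with lowered wild-type GFP, culture density cut under 30%, mutant RFP and density less affected; inactive = any of these conditions unmet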; note: one replicate is shown; some compounds called inactive have numbers as strong as hits
Beta2AR agonist: human beta-2 adrenergic receptor agonism by FAP; P07550; Am2.2-beta2AR cells, FAP receptor internalization, flow cytometry; reference of the scale not given here; response, % (test concentration not listed); 340,000 tested, 0.43% active; AID 504454;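 active = response above a set limit, near 3 SD of response in nonfluorescent compounds, cut at about 42% in these data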;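 note: stock transfer was 100 nL into about 11 µL; a reference agonist was the positive control; negative values mostly stem from fluorescent compounds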
Target sequence (P07550 whole entry, looked up): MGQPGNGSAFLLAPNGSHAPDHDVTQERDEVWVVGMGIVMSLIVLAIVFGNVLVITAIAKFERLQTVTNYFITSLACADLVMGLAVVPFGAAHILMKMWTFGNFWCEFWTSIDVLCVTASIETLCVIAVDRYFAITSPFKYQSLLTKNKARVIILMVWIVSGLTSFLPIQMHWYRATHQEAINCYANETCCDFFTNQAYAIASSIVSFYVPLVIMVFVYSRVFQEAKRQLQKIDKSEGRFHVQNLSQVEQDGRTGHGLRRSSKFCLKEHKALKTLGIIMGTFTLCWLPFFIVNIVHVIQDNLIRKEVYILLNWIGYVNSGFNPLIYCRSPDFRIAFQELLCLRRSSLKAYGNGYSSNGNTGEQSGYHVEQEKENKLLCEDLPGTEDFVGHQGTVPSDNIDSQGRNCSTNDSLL
rRNA inh HTS OD600: further read-out of rRNA inh HTS, marked with its call; OD600 change, %; measured here: OD600 growth;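 optical density of the mix in the first replicate; 0 = DMSO median and -100 = no signal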
rRNA inh HTS RFP: also measured in rRNA inh HTS; calls as there; RFP signal change, %; measured here: RFP humanized mutant strains;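 first replicate; 0 = DMSO median and -100 = no signal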
* = called active by the depositor. The list is partial, so the mix of outcomes need not match the whole.

`O=C(NN1CCCCCC1)c1ccccc1F` gave rRNA inh HTS 18.0, Beta2AR agonist -3.8, rRNA inh HTS OD600 8.9 and rRNA inh HTS RFP -0.6.
Screening COc1ccccc1C(CNC(=O)CNC(=O)c1cccc(Cl)c1)N1CCCC1 (stereo unspecified) returned rRNA inh HTS 13.7, Beta2AR agonist -1.1, rRNA inh HTS OD600 13.9 and rRNA inh HTS RFP 3.8.
C=CCN(CC=C)c1ncnc2[nH]ncc12 was read as rRNA inh HTS 7.6, Beta2AR agonist 0.5, rRNA inh HTS OD600 14.2 and rRNA inh HTS RFP 2.0.
`CN(Cc1ccccc1)C(=O)c1ccc(NC(=O)Cc2ccc(NC(=O)C3CCCN(C(=O)c4ccccc4)C3)cc2)cc1` (stereo unspecified) gave rRNA inh HTS -1.7, Beta2AR agonist -2.9, rRNA inh HTS OD600 4.4 and rRNA inh HTS RFP -2.4.
Cn1c(=O)c2[nH]c(SCc3cccnc3)nc2n(C)c1=S was read as rRNA inh HTS 13.3, Beta2AR agonist -2.5, rRNA inh HTS OD600 15.8 and rRNA inh HTS RFP 4.2.
CN(C(=O)c1cccc(NC(=O)Cc2ccc(NC(=O)C3CCCN(C(=O)C4CCC4)C3)cc2)c1)C1CC1 (stereo unspecified) was read as rRNA inh HTS -6.2, Beta2AR agonist -5.0, rRNA inh HTS OD600 7.7 and rRNA inh HTS RFP -4.3.
`Cc1cc(C)cc(-c2nnc(SCC(=O)NCC3CCCO3)o2)c1` (stereo unspecified) gave rRNA inh HTS -0.7, Beta2AR agonist -7.7, rRNA inh HTS OD600 -6.0 and rRNA inh HTS RFP 1.0.
`CCN(C[C@H]1N[C@@](Cc2ccccc2)(C(=O)OC)[C@H]2C(=O)N(C)C(=O)[C@@H]12)C(=O)COc1ccccc1` gave rRNA inh HTS -2.0, Beta2AR agonist 8.0, rRNA inh HTS OD600 -2.6 and rRNA inh HTS RFP 2.1.
`O=C(COC(=O)COc1ccc(Cl)cc1)NC1CCCCCC1` gave rRNA inh HTS 5.1, Beta2AR agonist -0.6, rRNA inh HTS OD600 2.0 and rRNA inh HTS RFP 3.5.
`Cc1ccc2c(c1)-c1cc(C)ccc1C2=O` gave rRNA inh HTS -4.5, Beta2AR agonist -0.8, rRNA inh HTS OD600 -12.3 and rRNA inh HTS RFP -2.0.
Screening Cc1cccc(C2=NN(c3ccccc3)[C@H](CO)[C@H]2c2ccc(F)cc2)c1 returned rRNA inh HTS -6.8, Beta2AR agonist -5.8, rRNA inh HTS OD600 -28.6 and rRNA inh HTS RFP -4.6.
Screening CSCCC(NC(=O)c1ccccc1Cl)C(=O)Nc1ccncc1 (stereo unspecified) returned rRNA inh HTS 3.8, Beta2AR agonist 11.7, rRNA inh HTS OD600 -1.1 and rRNA inh HTS RFP -3.1.
`CC(=O)OC(=C(OC(C)=O)c1ccccc1)c1ccccc1` gave rRNA inh HTS 14.2, Beta2AR agonist -6.0, rRNA inh HTS OD600 14.9 and rRNA inh HTS RFP 0.2.
`CN(CC(=O)Nc1cccc(F)c1)C(=O)CC1CCCC1` gave rRNA inh HTS 1.5, Beta2AR agonist -4.5, rRNA inh HTS OD600 6.7 and rRNA inh HTS RFP -2.5.
`O=C(Cc1cccc(NC(=O)C2CCCN(C(=O)C3CC3)C2)c1)Nc1ccc(C(=O)N2CCOCC2)cc1` (stereo unspecified) gave rRNA inh HTS 5.0, Beta2AR agonist -6.3, rRNA inh HTS OD600 11.1 and rRNA inh HTS RFP -2.8.
CCN(C[C@H]1N[C@@](Cc2ccccc2)(C(=O)OC)[C@H]2C(=O)N(C)C(=O)[C@@H]12)C(=O)C1CCCCC1 was read as rRNA inh HTS -10.2, Beta2AR agonist 0.8, rRNA inh HTS OD600 -5.2 and rRNA inh HTS RFP -1.2.
Screening CCCCN1C[C@H](CO)Oc2cccc(F)c2S1(=O)=O returned rRNA inh HTS 7.2, Beta2AR agonist -4.0, rRNA inh HTS OD600 9.6 and rRNA inh HTS RFP -2.0.
`CC(C)Cc1nnc(NC(=O)c2ccc(S(=O)(=O)N3CCCC3)cc2)s1` gave rRNA inh HTS -0.4, Beta2AR agonist -2.7, rRNA inh HTS OD600 -4.8 and rRNA inh HTS RFP -3.0.
Screening NS(=O)(=O)c1ccc(N2N=C(c3ccccc3)CC2c2ccccc2Cl)cc1 (stereo unspecified) returned rRNA inh HTS -1.2, Beta2AR agonist 8.0, rRNA inh HTS OD600 -13.1 and rRNA inh HTS RFP -0.6.
`COc1ccc(S(=O)(=O)N2C[C@H]3CON(C)[C@H]3C[C@H]2c2cccc(Br)c2)cc1` gave rRNA inh HTS -30.1, Beta2AR agonist -2.5, rRNA inh HTS OD600 -24.8 and rRNA inh HTS RFP 2.3.
COc1ccccc1CC(=O)NN1C(=O)NC2(CCC(C)CC2)C1=O (stereo unspecified) was read as rRNA inh HTS 7.9, Beta2AR agonist -0.5, rRNA inh HTS OD600 2.7 and rRNA inh HTS RFP -0.9.
For O=C(NN=Cc1ccc(O)cc1)C(=O)NN=Cc1ccc(O)cc1 the results were rRNA inh HTS 1.2, Beta2AR agonist -1.4, rRNA inh HTS OD600 14.4 and rRNA inh HTS RFP -0.9.
`CC(C)CN(C(=O)COC(=O)/C=C/c1ccc(Cl)c(Cl)c1)c1c(N)n(Cc2ccccc2)c(=O)[nH]c1=O` gave rRNA inh HTS 5.7, Beta2AR agonist 18.6, rRNA inh HTS OD600 5.1 and rRNA inh HTS RFP -0.6.
Screening O=C(Cc1ccc(NC(=O)C2CCCN(C(=O)c3ccccc3)C2)cc1)Nc1ccc(C(=O)N2CCOCC2)cc1 (stereo unspecified) returned rRNA inh HTS -0.6, Beta2AR agonist -3.0, rRNA inh HTS OD600 5.3 and rRNA inh HTS RFP 6.9.
For CN(C)Cc1cc(C(C)(C)c2ccccc2)ccc1O the results were rRNA inh HTS -3.2, Beta2AR agonist -5.2, rRNA inh HTS OD600 -8.0 and rRNA inh HTS RFP 4.1.
For Cc1ccc(C2C=C(c3ccccc3)Nc3nc(N4C(=O)CCC4=O)nn32)cc1 (stereo unspecified) the results were rRNA inh HTS -6.9, Beta2AR agonist -16.7, rRNA inh HTS OD600 0.1 and rRNA inh HTS RFP -1.1.
For O=S(=O)(c1ccccc1)N1CCNc2ccccc21 the results were rRNA inh HTS 3.9, Beta2AR agonist 7.3, rRNA inh HTS OD600 4.9 and rRNA inh HTS RFP 3.0.
`COc1cc(C=CC(=O)OCC=Cc2ccc3c(c2)OCO3)cc(OC)c1OC` gave rRNA inh HTS 8.2, Beta2AR agonist 1.1, rRNA inh HTS OD600 3.3 and rRNA inh HTS RFP 2.2.
CN(C)CCCNC(=O)C[C@H]1C[C@H](C(=O)N2CCCCC2)[C@@]2(CCc3ccccc3)c3[nH]c4cc(CCC(=O)N(C)C)ccc4c3CCN2C1=O was read as rRNA inh HTS 3.1, Beta2AR agonist -5.2, rRNA inh HTS OD600 0.8 and rRNA inh HTS RFP 1.0.
CCOC(=O)c1c(NC(=O)CN2C(=O)N(C)C3(CCCCC3)C2=O)sc(C(=O)N(C)C)c1C was read as rRNA inh HTS -1.7, Beta2AR agonist -1.2, rRNA inh HTS OD600 1.4 and rRNA inh HTS RFP -0.9.

The last two records of the part before open the next one:
CN(C)CCCNC(=O)C[C@H]1C[C@H](C(=O)N2CCCCC2)[C@@]2(CCc3ccccc3)c3[nH]c4cc(CCC(=O)N(C)C)ccc4c3CCN2C1=O was read as rRNA inh HTS 3.1, Beta2AR agonist -5.2, rRNA inh HTS OD600 0.8 and rRNA inh HTS RFP 1.0.
CCOC(=O)c1c(NC(=O)CN2C(=O)N(C)C3(CCCCC3)C2=O)sc(C(=O)N(C)C)c1C was read as rRNA inh HTS -1.7, Beta2AR agonist -1.2, rRNA inh HTS OD600 1.4 and rRNA inh HTS RFP -0.9.
Screening CN(C)C(CNC(=O)c1cc(S(=O)(=O)N(C)c2ccc(F)cc2)ccc1Cl)c1cccs1 (stereo unspecified) returned rRNA inh HTS -13.4, Beta2AR agonist -8.1, rRNA inh HTS OD600 -19.2 and rRNA inh HTS RFP -4.1.
Screening CC(C)N(C(=O)[C@H]1C[C@H](CC(=O)NC(C)(C)C)C(=O)N2CCc3c([nH]c4ccc(Cl)cc34)[C@]12C)C(C)C returned rRNA inh HTS -0.5, Beta2AR agonist 2.1, rRNA inh HTS OD600 -5.4 and rRNA inh HTS RFP 4.9.
Screening Cc1cccc(NC(=O)CNC(=O)Cn2cc(C(F)(F)F)cc(Cl)c2=O)c1C returned rRNA inh HTS 3.3, Beta2AR agonist -0.2, rRNA inh HTS OD600 1.4 and rRNA inh HTS RFP 2.3.
For Cc1cc(C(=O)N/N=C2\CCCC(=O)C2)c(C)o1 the results were rRNA inh HTS 7.3, Beta2AR agonist -2.4, rRNA inh HTS OD600 5.9 and rRNA inh HTS RFP -1.7.
Screening CCN1CCC(O)(C(C(=O)OC)c2ccccc2)CC1 (stereo unspecified) returned rRNA inh HTS 8.0, Beta2AR agonist -5.7, rRNA inh HTS OD600 20.8 and rRNA inh HTS RFP 0.5.
For CC(C)Cn1cnc2c(SCc3ccccc3)nc(N)nc21 the results were rRNA inh HTS -3.5, Beta2AR agonist -6.1, rRNA inh HTS OD600 -26.9 and rRNA inh HTS RFP -6.5.
For CCCn1c(N)c(C(=O)CN(C)CC(=O)Nc2ccccc2C(F)(F)F)c(=O)[nH]c1=O the results were rRNA inh HTS 6.8, Beta2AR agonist 3.1, rRNA inh HTS OD600 6.6 and rRNA inh HTS RFP -2.2.
`CC1CCc2c(sc(NC(=O)CSc3nc(N)cc(=O)[nH]3)c2C(N)=O)C1` (stereo unspecified) gave rRNA inh HTS 7.4, Beta2AR agonist 6.0, rRNA inh HTS OD600 1.1 and rRNA inh HTS RFP -0.7.
For CCCCCCn1c(=O)[nH]c2nc3cc(N)c(C)cc3nc2c1=O the results were rRNA inh HTS 33.2, Beta2AR agonist -15.6, rRNA inh HTS OD600 0.0 and rRNA inh HTS RFP 0.8.
`O=C(Cc1cccc(NC(=O)C2CCCN(C(=O)C3CCCC3)C2)c1)Nc1cccc(C(=O)N2CCCCC2)c1` (stereo unspecified) gave rRNA inh HTS -0.8, Beta2AR agonist -6.4, rRNA inh HTS OD600 -27.6 and rRNA inh HTS RFP -0.7.
For CC(Sc1nnc(-c2ccccc2F)o1)C(=O)Nc1ccc(N2CCOCC2)cc1 (stereo unspecified) the results were rRNA inh HTS 3.5, Beta2AR agonist -3.5, rRNA inh HTS OD600 6.7 and rRNA inh HTS RFP 3.3.
`CC(=O)OC[C@H]1O[C@@H](Oc2cc3ccc(=O)oc3cc2OC(C)=O)[C@H](OC(C)=O)[C@@H](OC(C)=O)[C@@H]1OC(C)=O` gave rRNA inh HTS 0.5, Beta2AR agonist 20.5, rRNA inh HTS OD600 0.5 and rRNA inh HTS RFP 3.1.
`O=C(NNC(=O)c1cccc2ccccc12)c1ccc(Cl)c(Cl)c1` gave rRNA inh HTS -6.0, Beta2AR agonist -2.8, rRNA inh HTS OD600 -9.1 and rRNA inh HTS RFP -0.2.
CN(C)/C=N/C1=C(C#N)C(c2cccs2)c2ccc3ccccc3c2O1 (stereo unspecified) was read as rRNA inh HTS -13.1, Beta2AR agonist 20.7, rRNA inh HTS OD600 -11.9 and rRNA inh HTS RFP 17.2.
Screening Cc1c2cnccc2c(C)c2c1oc1ccccc12 returned rRNA inh HTS -8.6, Beta2AR agonist 8.3, rRNA inh HTS OD600 -61.7 and rRNA inh HTS RFP 3.4.
`N#Cc1ccc(COC(=O)C2CC(=O)N(CCc3ccccc3)C2)cc1` (stereo unspecified) gave rRNA inh HTS 2.3, Beta2AR agonist -1.4, rRNA inh HTS OD600 1.1 and rRNA inh HTS RFP -1.1.
C[C@]12c3[nH]c4cc(-c5ccco5)ccc4c3CCN1C(=O)[C@@H](CC(=O)NCc1cccc(C(F)(F)F)c1)C[C@@H]2C(=O)N1CCCCC1 was read as rRNA inh HTS 3.1, Beta2AR agonist -1.2, rRNA inh HTS OD600 7.3 and rRNA inh HTS RFP 12.0.

5 records picked at random from those above, as already listed:
Screening Cc1c2cnccc2c(C)c2c1oc1ccccc12 returned rRNA inh HTS -8.6, Beta2AR agonist 8.3, rRNA inh HTS OD600 -61.7 and rRNA inh HTS RFP 3.4.
`CC(C)Cc1nnc(NC(=O)c2ccc(S(=O)(=O)N3CCCC3)cc2)s1` gave rRNA inh HTS -0.4, Beta2AR agonist -2.7, rRNA inh HTS OD600 -4.8 and rRNA inh HTS RFP -3.0.
Screening CCN1CCC(O)(C(C(=O)OC)c2ccccc2)CC1 (stereo unspecified) returned rRNA inh HTS 8.0, Beta2AR agonist -5.7, rRNA inh HTS OD600 20.8 and rRNA inh HTS RFP 0.5.
For CCCn1c(N)c(C(=O)CN(C)CC(=O)Nc2ccccc2C(F)(F)F)c(=O)[nH]c1=O the results were rRNA inh HTS 6.8, Beta2AR agonist 3.1, rRNA inh HTS OD600 6.6 and rRNA inh HTS RFP -2.2.
For CC(C)Cn1cnc2c(SCc3ccccc3)nc(N)nc21 the results were rRNA inh HTS -3.5, Beta2AR agonist -6.1, rRNA inh HTS OD600 -26.9 and rRNA inh HTS RFP -6.5.
